# HSD17B inh = inhibitors of human HSD17B10 dehydrogenase; actives 7.6% (n = 75,000); Potency, µM (series often up to 57.1 µM), without a hit: at the highest dose activity change, negative = inhibition, actives largely listed as inhibitors; AID 893; recombinant HSD17B10, NADH fluorescence kinetic; many of its hits are not listed in these tables; active = well fitted inhibition curve with a large enough effect; inconclusive = small, poorly fitted or top-dose-only effect; inactive = no such curve, though single readings can be large or run the other way;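 also: the protocol describes HADH2 (HSD17B10) and not the HSD17B4 of the title; nearly all actives have a fitted effect of over 70% in size; most hits overshoot -100% by far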
#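 Enzyme plus compound, 15 min room temperature; substrate mix added (NAD+ 1 mM, beta-hydroxybutyryl-CoA 90 uM final); plates read kinetically for NADH fluorescence. HADH2 was His-tagged, E. coli-derived, 20 nM.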
# * hit, by the source's call; ? = inconclusive; [ ] = dose if it differs, or a comment. % is scaled to controls: 0 for no effect and ±100 for the full control effect; potency is read from the fitted curve at half-maximal effect. This is a subset; rates above refer to the full screens.
SMILES,HSD17B inh
CCN(CC)CCCN(Cc1cc2cc3c(cc2[nH]c1=O)OCO3)C(=O)Nc1ccccc1OC,32µM*
COc1cccc(NC(=O)CSc2nnnn2C(C)C)c1,6%
CCCS(=O)(=O)N1CCCC(C(=O)NCc2ccc(C)cc2)C1 (stereo not drawn),9%
COc1ccccc1C1C2C(=O)N(c3ccccc3)C(=O)C2ON1c1ccccc1 (stereo not drawn),8%
CC(C)(C)NCCCCOc1ccc(F)cc1,7%
COc1cc(C2C(C(C)=O)=C(O)C(=O)N2CCc2c[nH]c3ccccc23)ccc1O (stereo not drawn),-5%
Cc1cc(C)n(/N=C/c2c[nH]c3ccccc23)c(=O)c1,1%
Cc1noc(C)c1S(=O)(=O)Nc1ccc(C(=O)NC2CCCCC2C)cc1 (stereo not drawn),2%
COc1ccc(OC)c(NC(=O)Cn2cc(C#N)c3ccccc32)c1,-1%
Cc1oc2ccc(OC(=O)N3CCOCC3)cc2c1C(=O)OC(C)C,-2%
N#Cc1c(NC(=O)CCn2cnc3ccccc3c2=O)oc(-c2ccccc2)c1-c1ccccc1,-3%
COC(=O)CC1C(=O)NCCN1C(=O)CSc1nnc(Nc2ccc(OC)cc2)s1 (stereo not drawn),-4%
CCC1SC2=NC(C)=C(C(=O)OC)C(c3ccc(C)cc3)N2C1=O (stereo not drawn),6%
COc1ccc(/C=N/n2cc(-c3ccc(OC)cc3)nc2N)cc1,-16%
O=C(Nc1nc2c(s1)CCCC2)c1ccc2ncsc2c1,11%
Clc1cc(Cl)c(Cl)cc1Cl,1%
O=C1C2=C(Nc3cc([N+](=O)[O-])ccc3N2)O[C@@H]1c1c[nH]c2ccc(COc3ccccc3)cc12,-3%[11.4 µM]
CC1(C)CC2(CC(C)(C)NC(=O)N2)NC(=O)N1,-4%
COc1cccc(-c2nnc(SCc3ccc(C#N)cc3)n2Cc2ccco2)c1,-27%
O=S(=O)(c1ccccc1)N1CCC2(CCN(Cc3ccccc3)CC2)CC1,10%
COc1ccccc1N1CCN(C(=O)c2c(-c3ccccc3)noc2C)CC1,6%
O=C(CSc1ncccn1)NC(=O)NCc1ccccc1,-3%
CC(C)OC(=O)CSc1nnc(-c2cnccn2)n1C,-2%
CCOC(=O)C(NC(C)=O)C(OC(C)=O)c1cccc(N(CCO)CCO)c1 (stereo not drawn),-4%
CCC(Oc1ccccc1)C(=O)Nc1nnc(C)s1 (stereo not drawn),2%
CC(C)(C)c1cc(=O)n2c(C#N)c(C#N)nc2[nH]1,32µM*
O=C(Nc1ccc(S(=O)(=O)NCc2ccccc2)cc1)Nc1ccc2c(c1)OCO2,4%
CC(=O)Nc1ccc(C(=O)CSc2nnc3scc(-c4ccccc4)n23)cc1,-6%
Cc1ccc2nc(N3CCN(C)CC3)c(C#N)cc2c1,-1%
O=C(CN1C(=O)CCC1=O)Nc1nc(-c2ccccn2)cs1,17%
Cc1cccc(CNc2cc(-c3cccnc3)ncn2)c1,32µM*
COCC(=O)N(C)c1nnc(-c2cnc(C)cn2)s1,32µM*
CC1CCCCC1NC(=O)C1CCN(S(=O)(=O)c2ccc3c(c2)CCC(=O)N3)CC1 (stereo not drawn),9%
O=C(NCN1CCCCC1)c1cnccn1,13%
COc1cc(Br)cc(CN2CCN(C=O)CC2)c1O,-3%
O=C(CN1C(=O)NC2(CCCC2)C1=O)Nc1nc(-c2ccc(F)cc2)cs1,0%
CC(=O)c1cc(Cc2csc(C(C)=O)c2)cs1,-2%
O=C(c1ccccc1)N(Cc1ccccc1)c1ccccn1,2%
O=C(O)c1cc2n(n1)C(C(F)(F)F)CC(c1ccco1)N2 (stereo not drawn),-5%
CCOc1cccc(NC(=O)C2CC(=O)N(C)C(=Nc3cccc(F)c3)S2)c1 (stereo not drawn),3%
Cn1c(=O)cc(SCC(=O)NCCCN2CCOCC2)c2ccc(Cl)cc21,-7%
CCOc1nc(-c2ccccc2)ccc1-c1noc(COc2ccccc2)n1,-10%
O=c1/c(=C/c2ccccn2)sc2nc3ccccc3n12,-2%
COc1ccc(C)cc1S(=O)(=O)Nc1cccc(Cl)c1,-2%
CCC(c1nnnn1C1CCCC1)N1CCN(c2ccccc2F)CC1 (stereo not drawn),-6%
O=C(NCc1cccnc1)c1c[nH]c2cc3c(cc2c1=O)OCCO3,-10%
CCN(CC(=O)O)CC(=O)O,6%[11.4 µM]
COc1cc2c(N3CCOCC3)cc(O)c(CC(=O)Nc3ccccc3)c2cc1OC,3%
COC(=O)Nc1ccc2c(c1)N(C(=O)CCN1CCOCC1)c1ccccc1S2,-1%
O=C(O)c1c(Cl)c(Cl)c(Cl)c(Cl)c1C(=O)N1CCOCC1,3%
COC(=O)CSc1nsc(SCC(=O)OC)n1,9%
CC(=O)OCn1nnc2ccccc2c1=O,4%
CS(=O)(=O)N1CCC2(CCCN(C(c3ccccc3)c3ccccc3)C2)CC1,-7%
O=C(NCCO)c1nc(NCCO)c2ccccc2n1,4%
CC1Cc2ccccc2N1C(=O)C12CCC(C)(C(=O)C1)C2(C)C (stereo not drawn),32µM*
CCCCN(CC)CCCNC(=O)CS(=O)(=O)Cc1nc(-c2cccc(OC)c2)oc1C,-9%
Cc1ccc(C(=O)Nc2ccc(Cl)cn2)cc1,7%
CCOCCCN(CCC#N)S(=O)(=O)c1ccc(S(=O)(=O)N2CCCC2)cc1,11%
Cc1ccnc(SCC(=O)O)n1,9%
CN(Cc1ccccc1)c1nc2c(c(=O)[nH]c(=O)n2C)n1CCOc1ccccc1,?

# Laid out differently: entries from further up.
compound | HSD17B inh
Cc1ccc2nc(N3CCN(C)CC3)c(C#N)cc2c1 | -1%
O=C(CN1C(=O)CCC1=O)Nc1nc(-c2ccccn2)cs1 | 17%
Cc1cccc(CNc2cc(-c3cccnc3)ncn2)c1 | 32µM*

# Further entries:
SMILES,HSD17B inh
Nc1ccccc1CCCC(=O)O,2%[11.4 µM]
c1ccc2[nH]c(-c3ccnc4ccccc34)nc2c1,32µM*
CCn1ncc(CN2CCN(C(=O)Nc3ccccc3C(=O)OC)CC2)c1C,-9%
CCOC(=O)N1CCC(NC(=O)C(NS(=O)(=O)c2ccc3c(c2)CCN3C(C)=O)C(C)C)CC1 (stereo not drawn),5%
CC1(C)CC(=O)C=C(NCCCN2CCCC2=O)C1,4%
OC1C[N+]2(CCCCC2)C1,2%
COCc1cc(C)[nH]c(=O)c1C#N,25µM*
CC1CCc2nc(NC(=O)Cc3cccs3)sc2C1 (stereo not drawn),-9%
Cc1ccc(SCCNS(=O)(=O)c2ccc3c(c2)OCCO3)cc1,-13%
CC(C)Cn1c(N)c(C(=O)COC(=O)c2cc(C3CC3)nc3ccccc23)c(=O)n(C)c1=O,?
Cc1ccc(S(=O)(=O)NCCOc2nc(N(C)C)nc(N3CCOCC3)n2)cc1,-3%
COc1ccc(N2C(=O)NC3CC2(C)Oc2ccccc23)cc1OC (stereo not drawn),8%
N#Cc1nc(-c2ccco2)oc1NCCc1ccccc1,32µM*
CCOc1cc(CNc2ccc3[nH]c(=O)[nH]c3c2)ccc1OCC(=O)NC(C)(C)C,?
CCCc1[nH]nc2c1C(c1ccc(OC(=O)N3CCOCC3)cc1)C(C#N)=C(N)O2 (stereo not drawn),-6%
Cc1ccc(S(=O)(=O)N2CCCC2C(=O)OCc2ccco2)cc1 (stereo not drawn),?
OCc1c[nH]c2ccccc12,-5%
COCC(C)NC(=O)c1cccc(Cl)c1 (stereo not drawn),17%
O=C(O)c1cc(Nc2nc(N3CCOCC3)nc(N3CCOCC3)n2)ccc1Cl,20%
O=C(Nc1ccccc1-c1ccccc1)NC1CCN(C(=O)N2CCOCC2)CC1,-9%
Cc1cc(N(CC(=O)O)S(C)(=O)=O)ccc1Br,6%
O=C(c1cccc(F)c1)N1CCN=C1SCc1cccnc1,1%
COc1ccc(C(C)=O)c2c(O)cccc12,1%
O=C(Cc1ccc(S(=O)(=O)N2CCCC2)s1)N1CCOCC1,-1%
Cn1c(SCC(=O)N2CCOCC2)nnc1-c1ccccc1,9%
Cn1c(=O)c2c(nc3sccn32)n(C)c1=O,9%
S=c1[nH]nc(Cc2ccccc2)n1Cc1ccco1,?
O=C(NCc1ccccn1)NC12CC3CC(CC(C3)C1)C2,6%
COc1cccc(Nc2nnc(SCn3nnc4ccccc4c3=O)s2)c1,-9%
Nc1nc2c(s1)CCc1c-2cnn1-c1ccccc1,25µM*
CCOc1ccc2ccccc2c1CNCCN1CCOCC1,8%
CCOC(=O)CCc1c(C)c2ccc(OCc3nn[nH]n3)cc2oc1=O,25µM*
Cc1cccc(OCC(=O)Nc2cc(C)ccc2O)c1,-5%
COc1ccc2c3c1OC1C[C@@H](O)C=C[C@@]31CCN(C)C2 (stereo partly drawn),-3%
Cc1nc(N2CCN(c3ccccc3)CC2)nc2c1C(=O)CCC2,2%
COc1cc(NS(=O)(=O)N2CCCC2)cc(OC)c1OC,-5%
CS(=O)(=O)N(Cc1ccccc1)c1ccc(C(=O)N2CCOCC2)cc1,13%
COc1ccc(-c2ocnc2C(=O)Nc2ccccc2N2CCCCC2)cc1,32µM*
O=C(CCc1nc(-c2ccccc2)no1)Nc1cc(C(F)(F)F)ccc1Cl,-7%
O=C(c1ccc(CS(=O)(=O)c2ccccc2)o1)N1CCOCC1,-1%
CCN(CC)P(=O)(C(NC(=O)OC)C(F)(F)C(F)(F)C(F)(F)C(F)F)N(CC)CC (stereo not drawn),6%
CCOc1cccc(C2C(C(=O)c3ccco3)=C(O)C(=O)N2Cc2ccncc2)c1 (stereo not drawn),-17%
CCN(CC(=O)NC(=O)NCc1ccco1)Cc1nc2ccccc2c(=O)[nH]1,?
CCC(=O)Nc1ccccc1C(=O)N1CCOCC1,3%
COc1cccc2cc(C(=O)C3=C(O)C(=O)N(CCCN4CCOCC4)C3c3ccncc3)oc12 (stereo not drawn),1%

# Shown with bars between the fields: entries from further up
structure | HSD17B inh
COc1ccc2c3c1OC1C[C@@H](O)C=C[C@@]31CCN(C)C2 (stereo partly drawn) | -3%
Cc1nc(N2CCN(c3ccccc3)CC2)nc2c1C(=O)CCC2 | 2%
COc1cc(NS(=O)(=O)N2CCCC2)cc(OC)c1OC | -5%
CS(=O)(=O)N(Cc1ccccc1)c1ccc(C(=O)N2CCOCC2)cc1 | 13%
COc1ccc(-c2ocnc2C(=O)Nc2ccccc2N2CCCCC2)cc1 | 32µM*
O=C(CCc1nc(-c2ccccc2)no1)Nc1cc(C(F)(F)F)ccc1Cl | -7%
O=C(c1ccc(CS(=O)(=O)c2ccccc2)o1)N1CCOCC1 | -1%

# Back to the main list; the 4 compounds before the break are reprinted first.
SMILES,HSD17B inh
CCOc1cccc(C2C(C(=O)c3ccco3)=C(O)C(=O)N2Cc2ccncc2)c1 (stereo not drawn),-17%
CCN(CC(=O)NC(=O)NCc1ccco1)Cc1nc2ccccc2c(=O)[nH]1,?
CCC(=O)Nc1ccccc1C(=O)N1CCOCC1,3%
COc1cccc2cc(C(=O)C3=C(O)C(=O)N(CCCN4CCOCC4)C3c3ccncc3)oc12 (stereo not drawn),1%
COc1ccc(Oc2ncc3nc(CCc4ccccc4)c(=O)n(C)c3n2)cc1,?
CCc1ccc(C2CC(=O)N3CN(c4ccccc4)CSC3=C2C#N)cc1 (stereo not drawn),7.9µM*
Cc1ccc2nc3c(c(N)c2c1)CCN3c1ccccc1,32µM*
COc1ccc(-n2c(Cc3cccn3C)nnc2SCC(=O)NCc2ccc(F)cc2)cc1,5%
Cc1noc(C)c1C(=O)N1CCC[C@@]2(CCN(Cc3nccs3)C2)C1,3%
O=C(OCc1nc2ccccc2s1)C1CCN(S(=O)(=O)c2cccs2)CC1,-4%
CC1Oc2ccccc2N(CC(=O)NCC2CCCO2)C1=O (stereo not drawn),0%
O=C(CSCCO)Nc1ccc(C2CCCCC2)cc1,-15%
O=C(O)CC(C(=O)Nc1cccc(C(F)(F)F)c1)C1CCCO1 (stereo not drawn),5%
CN1CCN(C(=O)c2ccc(Cl)c(S(=O)(=O)N3CCCCC3)c2)CC1,0%
CC(=O)c1cccc(NC(=O)CN2C(=O)NC3(CCCCCCC3)C2=O)c1,11%
Cn1c(C(=O)NC2CCCCC2)cc2c(=O)n(C)c3ccccc3c21,?
FC(F)(F)c1nnc2ccc(NCn3nnc4ccccc43)nn12,10%
Cn1c(SCC(=O)Nc2ccc(N3CCOCC3)c(Cl)c2)nnc1-c1ccccc1,2%
CCCCC#Cc1ccccc1CC(=O)Nc1ccccc1,?
Cc1cnc(CNc2ccnc(-c3ccccc3CN(C)C)n2)cn1,-2%
Cn1c(Cc2ccccc2)nnc1SCC(=O)Nc1ccc2c(c1)OCO2,3%
O=C(O)/C=C(/c1ccccc1)C(F)(F)F,16%
CCCNC(=O)CC(NS(=O)(=O)c1ccc(Cl)cc1)c1ccco1 (stereo not drawn),-7%
O=C(Nc1ccc2c(c1)OCO2)C1COc2ccccc2O1 (stereo not drawn),-4%
Cc1noc(C)c1-c1ccc2ncnc(N(C)Cc3ccco3)c2c1,-16%
O=C(CN1C2CCC1CC(NC(=O)NC1CCCCC1)C2)NC1CC1 (stereo not drawn),-1%
O=C(NCc1ccccc1)NC(=O)c1ccncc1,7%
CCOC(=O)c1c(NC(=O)c2ccc(-n3cnnn3)cc2)sc2c1CCCC2,-9%
Cc1ccc(NC(=O)CC2Nc3ccccc3NC2=O)cc1Cl (stereo not drawn),-25%

# Bioassay records as filed in PubChem BioAssay.
